Screens as filed in PubChem BioAssay.
eIF4H FP inh – inhibitors of RNA binding by human eIF4H; Q15056; 0.94% of 290,000 active; eIF4H fluorescence polarization binding assay; AID 2012; inhibition, % at 35 µM;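 active = 50% or more with normal probe brightness, or confirmed in later tests; inconclusive = above 50% with abnormal brightness, or retests that disagree; inactive = below 50% or failed in later tests; about a fifth of its hits are not listed in these tables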;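 also: calls also rest on retests at 20 µM and on dose response follow-up; 0% = protein and probe with vehicle and 100% = probe without protein; strong numbers were not always called active; many hits fall short of the cut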
PABP FP inh – blocks human PABP binding to poly(A) RNA. P11940. fluorescence polarization. inhibition, % at 35 µM. 1% of 290,000 active. AID 2014;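 active = 50% or more with normal probe brightness, or confirmed in later tests; inconclusive = above 50% with abnormal brightness, or retests that disagree; inactive = below 50% or failed in later tests; about a fifth of its hits are not listed in these tables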;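 also: calls also rest on retests at 20 µM and on dose response follow-up; controls were probe without protein and protein plus probe with vehicle; some compounds called inactive have numbers as strong as hits; many hits fall short of the cut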
Rce1 inhib – yeast Ras-converting enzyme inhibition | Q03530 | 0.27% of 290,000 active | AID 2563 | yeast membranes, quenched prenylated peptide cleavage fluorescence | calls only;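 active = fall in fluorescence gain of 50% or more versus controls, with final raw signal at or below 3038400; inconclusive = same 50% fall but final raw signal above 3038400; inactive = fall in fluorescence gain under 50%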;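 also: plate controls were neutral control wells for no effect and wells lacking membranes for full effect; tested at 10 µM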
Target sequence (Q03530 whole entry, looked up): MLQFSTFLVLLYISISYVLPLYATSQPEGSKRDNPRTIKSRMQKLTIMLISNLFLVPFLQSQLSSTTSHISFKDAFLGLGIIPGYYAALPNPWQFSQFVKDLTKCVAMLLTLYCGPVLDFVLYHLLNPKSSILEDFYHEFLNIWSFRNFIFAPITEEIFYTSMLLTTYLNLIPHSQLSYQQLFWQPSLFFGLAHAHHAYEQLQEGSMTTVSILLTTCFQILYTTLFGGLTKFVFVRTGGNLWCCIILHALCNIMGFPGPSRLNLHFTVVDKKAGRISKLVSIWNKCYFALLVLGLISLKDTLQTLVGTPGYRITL
CSC inhib – blocks cancer stem cells; AID 2717; 1.1% of 300,000 active; cancer stem cell-like cells viability, luminescence; inhibition, % at 7.5 µM;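 active = mean at 75% or more and at least half the replicates too; inconclusive = mean and replicates disagree; tested in HMLE shEcad cells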;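 also: 0% = median of negative and 100% = median of positive control wells; the first replicate is given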
Yeast UUG start – yeast start codon fidelity modulation | 0.13% of 350,000 active | S. cerevisiae UUG-firefly luciferase reporter, luminescence/redox ratio | AID 602363 | activity score, % at 18.7 µM;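 active = replicate mean at a twofold rise or more, about +100% in these data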;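 also: firefly luciferase made from a UUG start codon reports start codon fidelity; reporter light over untreated wells divided by growth signal over untreated wells; some hits fall short of that in this replicate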
Env fusion inh – HIV envelope-mediated fusion inhibition. HeLa-JRFL Env/CEM21 cell fusion, luciferase. inhibition, % at 12.3 µM. 1.1% of 360,000 active;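 active = mean replicate inhibition score of at least 50 and every replicate individually at or above 50; inconclusive = only one of the two criteria met; inactive = mean below 50 and not all replicates reaching 50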;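 also: 0% = plate neutral controls and 100% = maraviroc near 300 nM; one replicate is shown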
MT1-MMP act inh – blocks activation of human MT1-MMP | P50281 | AID 651647 | 0.061% of 360,000 active | HT1080 RFP-PRO-GFP cells, GFP/RFP ratio fluorescence, overnight; percent of plate control window, DMSO zero | GFP/RFP ratio change, % at 20 µM;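 active = GFP/RFP ratio change of at least 30% with cell ATP level not reduced by more than half and red fluorescence within 50% of control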; also: strong numbers were not always called active
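Test system: HT1080 cells expressing an RFP-PRO-GFP fluorescent reporter construct / Compound dosing: single-point 20 µM compound, 1% DMSO / Schedule: cells overnight before dosing, compound overnight, 37 °C, 5% CO2 / Evaluation: GFP/RFP fluorescence ratio / Control set: DMSO and RFP-L50D-GFP cell wells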
eIF4H FP inh retest – also measured in eIF4H FP inh; calls as there; inhibition, %; compound at 20 µM; confirmation average;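 mean of two retest wells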
PABP FP inh retest – recorded beside PABP FP inh, whose call it bears; inhibition, %; compound at 20 µM; confirmation repeats;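 mean of two retest wells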
MT1-MMP act inh RFP – further read-out of MT1-MMP act inh, marked with its call; RFP signal change, %; measured here: RFP expression control read;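 0 = vehicle wells; hits needed this value within 50% of zero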
* = called active by the depositor; i = inactive; ? = inconclusive; . = not tested or not shown; & = joins results of further samples.

SMILES | eIF4H FP inh | PABP FP inh | Rce1 inhib | CSC inhib | Yeast UUG start | Env fusion inh | MT1-MMP act inh | MT1-MMP act inh RFP | others
Cc1ccc(NC(=O)NNC(=O)c2ccc3c(c2)NC(=O)C(C)(C)O3)cc1 | -3 | -10 | i | . | -3 | -31 | 1 | 3
COc1cccc(C2CC(c3ccc(F)cc3)Nc3nc(N)nn32)c1 (stereo unspecified) | -7 | -8 | i | . | -8 | 5 | 3 | 1
C=CCn1cccc(C(=O)Nc2cc(OC)ccc2OC)c1=O | 2 | -9 | i | . | . | 8 | 0 | -2
COC(=O)[C@@]12CCCCN1[C@H](c1ccc(-c3ccc(Cl)c(Cl)c3)c(OC)c1)[C@H]1C(=O)N(C)C(=O)[C@H]12 | . | . | . | . | -7 | 14 | -13 | -15
CCC(CC)C(=O)N(C)c1c(C)nc2c(OCc3cccc(Cl)c3)cccn12 | . | . | . | . | -25 | 10 | -2 | -7
Cc1ccc(-n2c(Cc3cccn3C)nnc2SCC(=O)NCc2ccc3c(c2)OCO3)cc1 | 2 | 7 | i | . | . | 34 | 0 | 4
Cc1ccc(C(=O)C2=C(O)C(=O)N(c3ncccn3)C2c2ccc(Br)cc2)o1 (stereo unspecified) | 10 | 28 | i | 1 | . | . | . | .
O=C(Cn1c(=O)oc2cccnc21)Nc1ccc(C(F)(F)F)cc1 | 0 | 3 | i | -11 | -2 | 22 | 5 | -7
CCOc1ccc(OC(=O)c2cccnc2)cc1 | 8 | 2 | i | 15 | -16 | 2 | -3 | -3
COC(=O)c1sc(-c2ccccc2)cc1NC(C)=O | -16 | -3 | i | 17 | . | -2 | 6 | 3
CSc1nsc(SCC(=O)NCc2ccccc2)n1 | 5 | 2 | i | -4 | -16 | -1 | 3 | 5
Cc1c(OC(C)C(=O)NCc2cccnc2)ccc2c3c(c(=O)oc12)CCCC3 (stereo unspecified) | -1 | 1 | i | -16 | -21 | 1 | 0 | 0
COc1ccc2c(c1)c1nnc(SCC(=O)N3C(C)CCCC3C)nc1n2C (stereo unspecified) | -2 | 0 | i | 7 | -6 | -55 | 6 | -2
CCCNC(=O)C1(C)CCCN(Cc2csc(-c3ccccc3)n2)C1 (stereo unspecified) | . | . | . | . | -8 | 24 | -5 | 1
CCOC(=O)C1CCCN(Cc2nc(N)nc(Nc3ccc(C)cc3)n2)C1 (stereo unspecified) | -8 | 5 | i | -20 | -26 | 15 | -3 | -11
CCc1ccc(C2C3=C(CCCC3=O)OC3=C2C(=O)CCC3)cc1 | -8 | 25 | i | -3 | -20 | -39 | 1 | 1
c1ccc(Nc2cccc(Nc3ccccc3)c2)cc1 | 2 | 6 | i | -9 | . | -2 | 6 | -9
CC(=O)NC(CC(=O)NCC(=O)Nc1ccc(F)c(F)c1)c1ccccc1 (stereo unspecified) | -4 | -8 | i | -9 | -4 | ? | 2 | 3
O=C(c1ccccc1)N1CCC(=O)N(C(CO)Cc2ccccc2)CC1 (stereo unspecified) | . | . | i | -10 | -19 | -16 | 2 | 6
COc1ccc(NC(=O)CSc2nnc3n2CCCCC3)cc1OC | . | . | . | . | -21 | 2 | -1 | 8
Cc1ccc(NC(=O)CCn2c(=O)c3cccn3c3ccccc32)cc1C | -7 | -3 | i | 5 | -13 | 5 | 2 | 0
O=C(NCc1ccccn1)[C@H]1C[C@@H]1[C@H](NP(=O)(c1ccccc1)c1ccccc1)c1ccccc1 | -2 | 10 | i | -1 | 10 | 25 | 0 | 3
COCCNCCOCCOc1ccc(Cl)c(C)c1 | -1 | 4 | i | 1 | -3 | . | 5 | 8
COc1cc(/C=C/C(=O)N2C(=O)c3cccc(N)c3C2=O)cc(OC)c1OC | 6 | 13 | i | . | -2 | -60 | 4 | 4

Continued; it opens with the two that closed the last part.
SMILES | eIF4H FP inh | PABP FP inh | Rce1 inhib | CSC inhib | Yeast UUG start | Env fusion inh | MT1-MMP act inh | MT1-MMP act inh RFP | others
COCCNCCOCCOc1ccc(Cl)c(C)c1 | -1 | 4 | i | 1 | -3 | . | 5 | 8
COc1cc(/C=C/C(=O)N2C(=O)c3cccc(N)c3C2=O)cc(OC)c1OC | 6 | 13 | i | . | -2 | -60 | 4 | 4
Cc1c(Cl)cnc(NC(=O)COC(=O)c2ccc3c(c2)OCO3)c1Cl | 14 | 0 | i | -5 | . | . | 1 | 5
CCOc1ccc2oc(C(=O)O)c(C)c2c1 | -7 | 7 | i | -6 | 3 | -46 | 1 | 4
COc1ccc(C(=O)NC(CCSC)C(=O)N2CCCCCC2)cc1 (stereo unspecified) | -8 | -5 | i | . | -15 | 12 | -5 | 0
COc1ccc(-c2csc(Nc3ccc(C)cn3)n2)cc1OC | 2 | -3 | i | 0 | -16 | -24 | 1 | -10
CCN(CC)S(=O)(=O)c1ccc(N2CCOCC2)c(NC(=O)C2CCCO2)c1 (stereo unspecified) | -7 | -18 | i | -10 | -3 | 7 | 6 | 3
C/C(CC(=O)Nc1cc(Cl)ccc1Cl)=N\NC(=O)c1ccco1 | -8 | 0 | i | -11 | -15 | -53 | 0 | 5
CCn1nc(C)c(/C=N/NC(=O)Cn2nc(C)cc2C)c1C | 4 | 9 | i | -12 | -5 | 2 | -1 | 6
CCCn1c(=O)c(C(=O)NNC(=O)Cc2ccccc2)c(O)c2ccccc21 | 19 | 3 | i | 2 | -23 | 11 | 4 | 6
c1ccc(-c2nc(NC3CCCC3)c3ccccc3n2)cc1 | -3 | 2 | i | 24 | -9 | 14 | -2 | -5
O=C(NC1CCCCC1)N1CCCC(c2nc(-c3cccs3)no2)C1 (stereo unspecified) | -10 | -3 | i | -5 | -6 | 9 | 8 | -3
Cc1[nH]nc2c1C1(C(=O)N(Cc3ccc(Cl)cc3)c3ccccc31)C(C#N)=C(N)O2 (stereo unspecified) | 4 | 7 | i | -10 | -4 | 85* | -1 | -6
COC(=O)c1ccccc1NC(=S)N(C)C | 0 | -4 | i | -6 | . | 2 | 2 | 3
CC(=O)Oc1ccc2occ(-c3ccccc3)c2c1 | -8 | 1 | i | -19 | -16 | 2 | -6 | -11
CC1=NN(C)C(=O)C1Cc1c(F)cccc1Cl (stereo unspecified) | . | . | i | -20 | . | -1 | 0 | 0
COc1ccc(NS(=O)(=O)c2ccc(Oc3cccc(C(=O)O)c3)cc2)cc1 | -2 | -4 | i | -18 | . | 14 | -3 | 1
COc1ccccc1N1CCN(S(=O)(=O)CCNC(=O)c2ccc(OC(C)C)cc2)CC1 | 68 | 0 | i | -4 | 2 | 2 | 1 | -9 | eIF4H FP inh retest=-1;PABP FP inh retest=3
Cc1cccc(NC(=O)c2ccc([N+](=O)[O-])cc2Cl)n1 | 2 | 11 | i | -5 | . | -4 | 4 | 0
COCCCN1C(=O)c2ccc(C(=O)OCC(=O)NCCc3ccccc3)cc2C1=O | -7 | 36 | i | -4 | -13 | 6 | 1 | -1
CN(C)S(=O)(=O)c1cccc(NC(=S)NCc2ccc3c(c2)OCO3)c1 | -5 | -3 | i | -8 | . | 6 | 1 | -5
COc1ncnc2c1ncn2CCCNCCCN1CCCC1=O | . | . | . | . | -27 | 22 | 4 | 5
COC(=O)C(CCSC)NC(=O)CNC(=O)C1CCCCC1 (stereo unspecified) | -4 | -6 | i | -4 | 3 | -56 | -2 | -2
C/C(N)=C(/C#N)C(=O)CSc1nnc(SCc2ccc(Cl)cc2)s1 | 7 | 10 | . | 10 | -19 | 16&-4 | 0&4 | -15&-21
Cc1cccc([N+](=O)[O-])c1NC(=O)CSc1nnc2ccccn12 | . | . | . | -9 | -15 | . | 3 | 2
O=C(NC1(C(F)(F)F)C(=O)Nc2c1c(=O)[nH]c(=O)n2Cc1ccco1)C1CC1 (stereo unspecified) | 3 | 3 | i | . | -17 | -56 | -2 | 0
COc1ccccc1CNC(=O)CCCN1C(=O)NC2(CCCC2)C1=O | . | . | . | . | 12 | 3 | -2 | -1
CCNS(=O)(=O)c1ccc(CCC(=O)N2CCN(c3ccccc3F)CC2)cc1 | 2 | 3 | . | -10 | 9 | 0 | 1 | -3
COc1ccc([C@H]2N[C@]3(CCCN(Cc4ccc(C)cc4)C3=O)[C@H]3C(=O)N(Cc4ccccc4)C(=O)[C@@H]23)cc1 | . | . | . | . | 6 | -44 | -2 | -4
COC(=O)COc1ccc(S(=O)(=O)NCc2cccnc2)cc1C | -7 | -4 | i | -3 | -8 | . | -7 | 0
Cc1cccc(C)c1NC(=O)COC(=O)CCc1ccc(S(=O)(=O)N2CCCCC2)cc1 | -14 | -15 | i | -10 | . | 1 | 0 | 2
COc1cccc(-n2nc3c(-n4ncc(C#N)c4N)nnc(C)c3c2C)c1 | 0 | 4 | i | -3 | . | -151 | -2 | 1
NC(Cc1ccc(F)cc1)c1csc(Nc2cc(Oc3ccccc3)ncn2)n1 (stereo unspecified) | . | . | . | . | -8 | -24 | -6 | -9
O=C(CNc1cccc2ccccc12)N/N=C/C=C/c1ccco1 | ? | 0 | i | 4 | . | -3 | -1 | 2
O=C(Nc1ccc(Br)cn1)c1ccc([N+](=O)[O-])cc1Cl | 0 | -2 | i | -15 | . | -70 | 3 | -3
COC(=O)c1cc([N+](=O)[O-])c(-n2cncn2)c([N+](=O)[O-])c1 | 71 | 62* | i | . | . | 12 | 4 | 6 | eIF4H FP inh retest=45;PABP FP inh retest=65*
S=c1[nH]ncn1NCc1ccc(Cl)cc1Cl | 3 | 0 | . | -7 | . | -22 | 0 | 0
COc1ccc2cc(C(=O)N3CCCCCC3)sc(=O)c2c1OC | 0 | -2 | i | 1 | -7 | . | 5 | -1
Cc1ccc(S(=O)(=O)CCC(=O)Nc2ccccc2Br)cc1 | -16 | 1 | i | -1 | -15 | 19 | 1 | 2
COCC(=O)N/N=C/c1c(C)[nH]n(-c2ccccc2)c1=O | 16 | 9 | i | -11 | . | -25 | 7 | 5
S=c1[nH]ccn1-c1c(Cl)cccc1Cl | -1 | -1 | i | -4 | -13 | 7 | 4 | 3
Cc1c(C(=O)N2CCN(c3cccc(Cl)c3)CC2)cccc1[N+](=O)[O-] | -5 | 4 | i | -1 | -4 | 14 | 4 | -2
COc1ccc(-n2sc3c(c2=S)-c2cc(OC)ccc2NC3(C)C)cc1 | -3 | 13 | i | 129* | -10 | . | 2 | -4
C#CCOC(=O)C(NC(=O)c1ccccc1)=C(C)C | 4 | -1 | i | -1 | . | . | 5 | 8
Cc1ccc(S(=O)(=O)Nc2ccc3c(c2)CCC3)cc1 | 4 | 10 | i | 3 | 10 | 37 | -1 | -12
Cc1cc(Cl)ccc1NC(=O)CCC(=O)N/N=C/c1cccnc1 | -6 | 2 | i | -9 | -11 | 16 | -1 | 0
Fc1cccc(/C=N/Nc2ncnc3nc[nH]c23)c1 | 0 | -1 | i | -3 | -25 | -35 | 1 | 0
Cc1cc(C)n(-c2nc3ccccc3nc2N2CCN(C(=O)c3ccc(Cl)cc3)CC2)n1 | -8 | -3 | i | -10 | 3 | . | -5 | -4
Cc1cc(=O)oc2cc(OCc3ccc(C(=O)OCC(=O)NC4CCS(=O)(=O)C4)cc3)ccc12 (stereo unspecified) | 99* | 55* | i | -6 | . | 0 | -1 | 3
Cc1ccc(-c2csc(NC(=O)c3ccc([N+](=O)[O-])o3)n2)cc1 | -2 | 9 | i | 127* | -12 | -71 | -10 | -16
